From PubChem
Cruzain inh noDet: blocks cruzain activity in detergent-free assay. Potency, µM, inactives show max response, negative = inhibition, hits mostly inhibitors. 2.3% of 200,000 active. purified cruzain, Z-FR-AMC fluorescence, no detergent;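 also: plate controls were enzyme without inhibitor for no effect and buffer without enzyme for full effect; nearly all actives have a fitted effect of over 40% in size; top concentration of the series not given in the record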
Target sequence (P25779 123-467 limits assumed): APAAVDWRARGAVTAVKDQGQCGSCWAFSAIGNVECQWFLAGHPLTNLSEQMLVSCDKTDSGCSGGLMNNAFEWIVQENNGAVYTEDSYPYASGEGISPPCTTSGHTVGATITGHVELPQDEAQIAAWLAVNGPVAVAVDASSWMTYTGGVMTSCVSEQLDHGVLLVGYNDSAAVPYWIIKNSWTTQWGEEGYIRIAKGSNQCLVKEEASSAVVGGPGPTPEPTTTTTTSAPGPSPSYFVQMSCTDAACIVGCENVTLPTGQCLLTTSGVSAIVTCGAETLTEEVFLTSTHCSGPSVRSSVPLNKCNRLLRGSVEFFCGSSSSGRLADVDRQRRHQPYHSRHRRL
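Detergent-free condition (0.00005% Triton X-100) in acetate buffer pH 5.5 with DTT. 1.5 nM enzyme and compound were pre-mixed 15 min, then 2 uM Z-FR-AMC substrate added; reaction progress from fluorescence change between first and third reads (60 s).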
LASV entry inh: inhibitors of Lassa virus binding or cell entry | Lassa virus pseudotype entry inhibition, cell reporter; control for the full effect not named in the record | Potency, µM (doses to about 37.9 µM), for inactives: at the top dose activity change, negative = inhibition, usual class: inhibitors | 1.2% of 300,000 active | AID 540256; active means well fitted inhibition curve with a large enough effect; inconclusive means small, poorly fitted or top-dose-only effect, or effect the other way; inactive means flat fitted curve, though single readings scatter; tested in HEK293 cells; also: % is scaled to controls: 0 for no effect and ±100 for the full control effect; nearly all actives have a fitted effect of over 50% in size; luciferase read-out
RE007 growth inh: less growth of the S. pombe RE007 Vpr strain. AID 651644. S. pombe RE007 Vpr strain, BacTiter-Glo ATP luminescence, 24 h; control for the full effect not named in the record. Potency, µM (doses to about 92.2 µM), for the others: at the top dose activity change, negative = less growth. 0.21% of 360,000 active; active = well fitted falling curve with a large enough effect; inconclusive = small, poorly fitted or top-dose-only effect; inactive = no such curve, though single readings can be large or run the other way;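 also: % is scaled to controls: 0 for no effect and ±100 for the full control effect; nearly all actives have a fitted effect of over 50% in size; the assay follows cell death caused by Vpr and the record does not say whether a fall means rescue or toxicity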
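Fission yeast strain RE007, carrying one chromosomally integrated HIV-1 vpr copy, was seeded at OD 0.01 in PMG+AL medium with 23 nL pinned compound. After 24 h at 30 °C and 99% humidity, viability was read by BacTiter-Glo luminescence.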
SARS PLpro yeast: inhibitors of SARS-CoV papain-like protease in yeast; S. cerevisiae expressing SARS-CoV PLpro, growth rescue; control for the full effect not named in the record; Potency, µM (series often up to 32.9 µM), without a hit: at the top dose activity, positive = growth rescue; 0.19% of 330,000 active; active means well fitted rising curve with a large enough effect; inconclusive means small, poorly fitted or top-dose-only effect; inactive means no such curve, though single readings can be large or run the other way; also: 0% is about no effect; nearly all actives have a fitted effect of over 55% in size; growth read by luminescence after 48 h
Marburg entry inh: Marburg virus entry inhibition | Marburg virus pseudotyped entry inhibition, cell reporter; control for the full effect not named in the record; about a third of the inactives were read at about 46 µM | Potency, µM (titrated, usually from 37.8 µM), for the others: at the top dose activity change, negative = inhibition, most hits filed as inhibitors | 1.8% of 300,000 active; active = well fitted inhibition curve with a large enough effect; inconclusive = small, poorly fitted or top-dose-only effect, or effect the other way; inactive = flat fitted curve, though single readings scatter; tested in HEK293 cells; about a fifth of its hits are not listed in these tables; also: % is scaled to controls: 0 for no effect and ±100 for the full control effect; luciferase read-out
Cruzain inh Det: inhibitors of Trypanosoma cruzi cruzain with detergent | P25779 | purified cruzain, Z-FR-AMC fluorescence, 0.01% Triton | Potency, µM, for the others: max response, negative = inhibition, most hits filed as inhibitors | 0.43% of 200,000 active;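 also: plate controls were neutral wells for no effect and buffer without enzyme for full effect; nearly all actives have a fitted effect of over 40% in size; top concentration of the series not given in the record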
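Read-out: AMC fluorescence (360 nm excitation, 450 nm emission), four reads over 2 min, first-to-third difference used. Conditions: cruzain 1.5 nM, Z-FR-AMC 2 uM, pH 5.5 acetate, 5 mM DTT, 0.01% Triton X-100.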
NS1 inh: influenza NS1 inhibition; Potency, µM (highest dose often 46.1 µM), for the others: at the top dose activity, positive = more growth; 0.4% of 270,000 active; S. cerevisiae slowed by influenza A NS1, growth recovery by OD600; active means well fitted rising curve with a large enough effect; inconclusive means small, poorly fitted or top-dose-only effect; inactive means no such curve, though single readings can be large or run the other way; also: nearly all actives have a fitted effect of over 50% in size
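Recovery from NS1-induced slow growth read by OD600 in budding yeast switched to galactose assay medium (pH 6.0, -URA) at 1:100 dilution. Compound 23 nl per well; the matching strain lacking NS1 serves as control.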
2A StopGo: lowers the luciferase signal of an FMDV 2A StopGo reporter; human cells with a luciferase reporter of 2A StopGo recoding; control for the full effect not named in the record; Potency, µM (doses to about 57.9 µM), for inactives: at the highest dose signal change, negative = less light; 1.2% of 410,000 active; AID 1159524; active = well fitted falling curve with a large enough effect; inconclusive = small, poorly fitted or top-dose-only effect; inactive = no such curve, though single readings can be large or run the other way; tested in HEK293T cells; also: % is scaled to controls: 0 for no effect and ±100 for the full control effect; nearly all actives have a fitted effect of over 45% in size; luciferase light after 4 h
* marks the source's active call; other numbers are inactive results; ? = inconclusive; . = not tested or not shown; & = joins results of further samples; [ ] = dose if it differs, or a comment. Unless noted, calls follow the shape of the dose curve; as a rule, active = well fitted curve in the direction sought with a large enough effect; inconclusive = small, poorly fitted or top-dose-only effect, or another doubt; inactive = no such curve, though single readings can be large; an effect the other way counts as inactive or inconclusive. Potency is read from the fitted curve at half-maximal effect.

SMILES	Cruzain inh noDet	LASV entry inh	RE007 growth inh	SARS PLpro yeast	Marburg entry inh	Cruzain inh Det	NS1 inh	2A StopGo
Cc1ccc(CS(=O)(=O)c2ncc(Cl)c(C(=O)Nc3nc4ccc(C)cc4s3)n2)cc1	3.1%	?	.	.	?	-4.6%	.	?
CC1CC(C)(C)NC(=S)N1CC(=O)NCc1ccc2c(c1)OCO2 (stereo not given)	.	10.4%[46.1 µM]	7.1%	-1.4%	2.4%[46.1 µM]	.	-4.4%	9.7%
CCOc1ccc(Cn2ccnc2CCl)cc1[N+](=O)[O-]	-4.0%	2.3%	-2.8%	2.6%	-5.2%	2.7%	3.5%	8.4%
Cc1ccc(C(=O)Nc2onc(C)c2C#N)cc1	-1.5%	5.7%	9.5%	-21.1%	?	-4.6%	-12.8%	24.3%
c1ccc(CSc2ccc(-c3cccnc3)nn2)nc1	.	?	3.0%	-3.3%	-1.2%	.	.	66.7%[activator]
Cc1ccccc1-c1nnc(SCc2ccc(F)cc2)o1	3.2%	?	-1.8%	-5.5%	10.1%	-3.0%	-96.0%	56.8%[activator]
COc1ccccc1NC(=S)N(Cc1ccco1)Cc1cc2cccc(C)c2[nH]c1=O	-29.2%	-3.1%	13.2%	16.3%	?	-3.4%	?	-2.8%
COc1cccc(-n2cc(C(=O)OCc3ccc(F)c(F)c3)c3ccccc3c2=O)c1	-1.7%	17.3%[46.1 µM]	.	.	.	-1.0%	.	0.0%
CCN(c1ccccc1)S(=O)(=O)c1ccc(Cl)c(NC(=O)COC(=O)c2ccc(O)cc2)c1	-7.2%	?	24.3%	6.9%	-11.6%	-8.3%	11.7%	?
CCOc1cc(CNCC2CCCO2)cc(Br)c1OCC(N)=O (stereo not given)	-5.6%	1.3%	-9.5%	1.6%	?	-1.0%	-1.8%	-17.0%
CC1CCC2(CC1)SCC(=O)N2c1ccccc1 (stereo not given)	5.7%	-0.7%	12.5%	25.1%	9.5%	-0.6%	-9.1%	-6.9%
O=C(N/N=C/c1ccccc1C(=O)O)c1cccc(S(=O)(=O)Nc2cc(Cl)ccc2Cl)c1	.	4.3%	-5.9%	-0.1%	13.9%[46.1 µM]	.	2.4%	-13.3%
COc1ccc(N2CCN(C(=S)Nc3ccc(C)cc3C)CC2)cc1	.	.	6.8%	0.0%	.	.	-1.1%	-24.2%
CC(C)NC(=O)NC(=O)CSc1nnc(COc2ccccc2F)n1C(C)C1CC2CCC1C2 (stereo not given)	?	18.3µM*	-0.9%	-6.7%	?	-4.1%	18.3%	28.2µM*
O=S(=O)(NC(=S)Nc1ccccc1)c1ccc(F)cc1	.	.	8.3%	-0.4%	.	.	-6.4%	4.4%
O=C(c1ccccc1)N1CCN(c2ccc(NCc3ccc4c(c3)OCO4)cc2)CC1	-1.8%	.	-26.2%	2.1%	-0.9%	-2.0%	?	?
COc1ccccc1N1CCN(C2CCCN(Cc3ccccc3OCCO)C2)CC1 (stereo not given)	.	10.5%[46.1 µM]	-12.0%	?	?	.	1.5%	-1.8%
Cc1ccc(S(=O)(=O)N2CCN(C(=O)c3ccnn3C)CC2)cc1C	.	.	9.0%	-4.8%	.	.	-10.8%	-15.3%
CSC1=NS(=O)(=O)c2c(C)nn(C)c2S1	.	-1.1%[46.1 µM]	-6.3%	1.2%	-10.6%[46.1 µM]	.	-0.6%	?
CC(C)(C)OC(=O)NNc1c2ccccc2nc2ccccc12	.	12.6µM*	-22.9%	-16.9%	?	.	-88.7%	20µM*
COc1ccc(-c2cc(C)no2)cc1S(=O)(=O)N1CCCN(Cc2ccccc2Cl)C1	.	.	-11.3%	5.8%	.	.	-14.2%	-8.7%
Cc1ccccc1C(O)c1ccncc1 (stereo not given)	11.5%	-10.3%	0.0%	-4.5%	1.7%	-3.6%	9.1%	-8.9%
Cc1ccc(C)c(Cn2c(=O)n(CCCC(=O)NCc3ccco3)c(=O)c3ccccc32)c1	-7.1%	-0.9%&11.3%	1.4%	-7.6%	-1.2%&34.0%	1.9%	4.3%	-9.2%
O=C(/C=C/c1ccc2ccccc2n1)N1CCN(S(=O)(=O)c2ccc(F)cc2)CC1	.	.	2.0%	3.6%	.	.	-6.1%	?
O=c1oc2ccccc2n1Cn1c(=O)oc2ccccc21	1.3%	8.9%	15.2%	11.0%	0.8%	-0.2%	2.1%	-20.8%
O=C(CN(C(=O)c1csnn1)c1cccc2ccccc12)NCc1ccccc1	.	-4.2%	8.2%	-2.8%	-8.9%[46.1 µM]	.	8.0%	-17.1%
Cc1ccc(-c2nnc3ccccc3c2C(=O)Nc2ccccc2F)cc1	25.1µM*	?	.	.	.	0.0%	.	56.0%[activator]
Cc1ccc2c(c1)C(c1ccccc1)CC(=O)O2 (stereo not given)	.	-1.9%	-0.1%	0.4%	-3.5%	.	3.1%	2.5%
O=C(c1ccc2c(c1)N(Cc1ccc(Cl)cc1)C(=O)c1ccccc1S2(=O)=O)N1CCN(Cc2ccccc2)CC1	11.9%	?	.	.	?	-0.1%	.	1.2%
CCCCCn1c(=N)n(CC(O)COc2cccc(C)c2)c2ccccc21 (stereo not given)	17.4%	?	.	.	?	-1.4%	.	?
Cc1cccc(C(=O)Nc2cccc(C(=O)N/N=C/c3ccccn3)c2)c1	.	.	31.8%	-0.4%	.	.	-0.9%	8.1%
Cc1onc(-c2c(Cl)cccc2Cl)c1C(=O)Nc1ccc(C(N)=O)cc1	.	14.5%[46.1 µM]	0.2%	-0.7%	-24.5%[46.1 µM]	.	9.0%	-12.7%
COc1ccc(C(C(=O)NCc2ccccc2)N(C(=O)Cn2nnc3ccccc32)c2ccc(F)cc2)cc1 (stereo not given)	-8.1%	5.8%[46.1 µM]	.	.	-8.1%[46.1 µM]	-0.7%	.	19.3%
Cc1nc(N)nc(N)c1-c1ccc([N+](=O)[O-])cc1	.	?	-19.7%	.	?	.	.	-13.7%
COc1cccc(CNC(=O)c2ccccc2NC(=O)C2=C(C)OCCS2)c1	.	.	-0.8%	17.6%	.	.	-8.0%	-15.6%
COCCNC(=S)Nc1ccc(S(=O)(=O)Nc2ncccn2)cc1	.	-9.1%	14.8%	0.3%	15.2%[46.1 µM]	.	3.1%	-2.1%
CCc1nnc(NC(=O)CSc2nnc3c(C)cc4c(C)ccc(C)c4n23)s1	-6.9%	-12.5%	-4.8%	-8.9%	-2.7%	0.9%	6.7%	-19.7%
CCc1ccccc1NC(=O)CN(C)S(=O)(=O)c1ccc2c(c1)c(=O)n(C)c(=O)n2C	7.5%	.	-9.3%	7.5%	5.3%	0.4%	0.5%	-24.9%
COc1ccc(S(=O)(=O)N2CCCCCC2)cc1C(=O)N(C)Cc1ccc(C(C)(C)C)cc1	.	?	14.7%	-0.2%	?	.	16.5%	?
OCCCc1nc2n(n1)C(c1ccccc1)C=C(c1ccccc1)N2 (stereo not given)	1.8%	.	9.6%	16.7%	.	-2.7%	9.2%	-15.1%
CC1(C)C(=O)C2(CCCCC2)C(=O)OC1c1cccc([N+](=O)[O-])c1 (stereo not given)	3.1%	-0.4%[46.1 µM]	1.1%	24.4%	5.5%[46.1 µM]	-3.7%	6.0%	-21.9%
O=C(NCc1cn(-c2ccccc2)nc1-c1ccccc1)c1cccc([N+](=O)[O-])c1	?	13.7%	5.7%	-0.4%	-3.5%	-5.6%	28.2%	48.4%[activator]
CCOc1cc(C(=O)Nc2cccc(C(C)=O)c2)ccc1OCC(=O)N1CCCCC1	.	.	13.7%	?	?	.	.	-23.0%
CC(C)Oc1ccc(CNC(=O)CN2C(=O)CCc3cc(S(=O)(=O)N4CCCCC4)ccc32)cc1	?	3.1%[46.1 µM]	.	.	.	0.6%	.	-2.6%
CCC1(c2ccccc2)NC(=O)N(CC(=O)NCc2ccccc2OC)C1=O (stereo not given)	.	-11.2%	2.9%	9.8%	-0.1%[46.1 µM]	.	5.7%	-0.1%
CC(C)(c1ccccc1)c1ccc(OCC2CO2)cc1 (stereo not given)	.	-19.3%	9.9%	-6.1%	1.0%[46.1 µM]	.	-48.2%	-16.6%
Cc1ccc(-c2nnc(Nc3ccc(OCC(N)=O)cc3)c3ccccc23)cc1S(=O)(=O)N(C)C	11.9%	-28.7%[46.1 µM]	.	.	.	-7.8%	.	?
CC(=O)Nc1ccc(NC(=O)c2nc(S(=O)(=O)Cc3cccc(C)c3)ncc2Cl)cc1	.	?	-4.8%	2.3%	-13.4%[46.1 µM]	.	17.6%	20µM*
Cc1noc(NS(=O)(=O)c2ccc(NC(=O)CSc3nc4c(cc3C#N)CCCC4)cc2)c1C	?	.	-0.7%	-7.2%	.	-9.4%	-95.3%	-15.7%
CCN(c1ccc(C(O)(C(=O)OC)C(F)(F)F)cc1)S(=O)(=O)c1ccc(C)cc1 (stereo not given)	10.4%	?	-1.9%	-2.7%	-13.6%	-4.5%	9.3%	-4.8%
CCOC(=O)Cn1cnc2c(nnn2-c2cccc(Cl)c2)c1=O	.	7.2%[46.1 µM]	-4.7%	-0.7%	6.4%[46.1 µM]	.	0.2%	6.2%
Cc1ccc(-c2nc(S(=O)(=O)c3ccc(C)cc3)c(SCC(=O)NCC3CCCO3)o2)cc1 (stereo not given)	.	-13.7%[46.1 µM]	8.4%	2.6%	?	.	8.1%	18.6%
O=[N+]([O-])c1ccc(Cl)c(NC(=S)N2CCCC2)c1	.	-1.9%[46.1 µM]	-10.3%	17.0%	2.6%[46.1 µM]	.	0.0%	43.7%[activator]
Nc1c(-c2nc(-c3cccs3)no2)nnn1-c1cccc(F)c1	-0.8%	-4.1%[46.1 µM]	.	.	.	0.0%	.	25.6%
COc1ccc(NC2CCCN(C(=O)c3cn(C)c4ccccc34)C2)cc1 (stereo not given)	.	.	5.1%	-2.3%	.	.	2.1%	10.4%
COc1ccccc1NS(=O)(=O)c1ccc2[nH]c(=O)[nH]c2c1	.	8.5%	-1.7%	5.8%	-1.2%	.	0.1%	-2.0%
COc1ccc(Oc2nc3ccccc3n(C)c2=O)cc1	-9.0%	?	-24.3%	-4.8%	-0.3%	3.4%	5.2%	14.3%
Cc1onc(-c2c(Cl)cccc2Cl)c1C(=O)NN1CCCCCC1	.	13.4%	5.1%	1.9%	?	.	1.6%	4.8%
O=S(=O)(c1ccc(SCc2ccc(Br)cc2)nc1)N1CCCCC1	.	-17.6%	-12.1%	0.6%	0.2%	.	.	?
